Screening results: PubChem BioAssay, several laboratories
HSV replic up – increases HSV replication in cells; AID 1956; hit rate 0.005% among 220,000; maximum fold increase; HSV replication augmentation in cells, fold increase;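 active = peak rise of 1.5-fold or more in the series; tested in PC3 cells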;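 note: first round at 10 µM; read as green reporter fluorescence; hits show the peak of a series up to 25 µM; 1 = signal of infected wells without compound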
GALR2 ag – activates the human galanin receptor 2. GALR2-expressing cells, agonist activation read-out. activation, %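 (tested at 5 µM)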. O43603. hit rate 0.48% among 140,000;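 active = above mean plus 3 SD of all compounds, about 5% in these data, not always enough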;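 note: 0% = vehicle buffer wells and 100% = reference agonist at full effect; tested in CHO reporter cells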
Target sequence (O43603 whole entry, looked up): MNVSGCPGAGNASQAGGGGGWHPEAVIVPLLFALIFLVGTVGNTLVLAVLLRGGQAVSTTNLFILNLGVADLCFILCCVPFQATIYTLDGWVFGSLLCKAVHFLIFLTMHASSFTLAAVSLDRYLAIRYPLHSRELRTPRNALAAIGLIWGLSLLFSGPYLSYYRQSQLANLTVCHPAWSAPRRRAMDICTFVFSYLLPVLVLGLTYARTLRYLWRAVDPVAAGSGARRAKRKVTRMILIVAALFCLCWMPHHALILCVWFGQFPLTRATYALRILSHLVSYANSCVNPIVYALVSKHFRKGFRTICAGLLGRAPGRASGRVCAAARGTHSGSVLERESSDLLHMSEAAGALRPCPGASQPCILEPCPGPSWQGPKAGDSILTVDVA
RGS16-Gao HTS – regulators of human RGS16-Galphao interaction. O15492+P09471. bead-based flow cytometry RGS16-Galphao binding, fluorescence; actives lie on both sides. binding response (% of control), % at 10 µM. hit rate 0.38% among 220,000;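 active = below 25% or above 175%, edge rows of some plates excepted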;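 note: Galphao activated by GDP with aluminum fluoride before binding; 100% = wells without compound and 0% = beads without RGS; some results beyond the cut were filed as inactive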
Target sequence (O15492 whole entry, looked up): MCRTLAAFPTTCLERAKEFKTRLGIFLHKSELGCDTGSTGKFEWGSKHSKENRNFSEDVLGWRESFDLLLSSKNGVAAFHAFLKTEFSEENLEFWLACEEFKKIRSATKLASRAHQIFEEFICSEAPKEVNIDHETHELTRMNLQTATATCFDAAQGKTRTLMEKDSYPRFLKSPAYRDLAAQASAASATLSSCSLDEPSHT
Target sequence (P09471 whole entry, looked up): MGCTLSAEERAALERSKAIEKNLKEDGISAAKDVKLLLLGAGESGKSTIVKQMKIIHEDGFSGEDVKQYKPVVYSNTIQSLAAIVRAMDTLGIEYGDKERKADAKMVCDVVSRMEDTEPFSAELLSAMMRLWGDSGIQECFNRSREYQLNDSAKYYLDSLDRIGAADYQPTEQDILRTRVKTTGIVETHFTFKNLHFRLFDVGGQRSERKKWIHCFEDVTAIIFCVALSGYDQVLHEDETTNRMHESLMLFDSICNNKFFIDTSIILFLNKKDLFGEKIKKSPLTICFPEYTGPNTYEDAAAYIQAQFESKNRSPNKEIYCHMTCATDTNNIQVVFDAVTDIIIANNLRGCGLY
INS promoter inh – TRM-6 insulin promoter activity inhibition. TRM-6 cells (human fetal islet line), insulin promoter-eGFP reporter, imaging; reporter expression induced with tamoxifen. inhibition, % at 2 µM. hit rate 0.9% among 130,000. AID 1273;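 active = inhibition above the mean plus 3 SD, with well images judged a real hit on visual review, cut at about 60% in these data, passing the limit was not always enough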
PKD1 kinase inh – PKD1 (human) kinase inhibition; PKD1 kinase fluorescence polarization assay; inhibition, %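 (about 10 µM by stock and volumes)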; hit rate 0.056% among 200,000; AID 797;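 active = inhibition of 50% or more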;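 note: controls were vehicle for no effect and a reference inhibitor for full effect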
INS promoter inh cell count – recorded beside INS promoter inh, whose call it bears; normalized cell count, %; measured here: cell count, toxicity; reference of the scale not given here;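 cells exposed to compound for 48 h; stained nuclei by imaging scaled within each plate; lower means fewer cells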
HSV replic up primary fold – also measured in HSV replic up; calls as there; fold increase; compound at 10 µM; measured here: primary screen fold increase 10 uM; tested in PC3 cells;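 GFP signal in the first replicate; 1 = infected wells without compound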
Starred values were filed as active, the others as inactive; i = inactive; nt = no result given.

Value order: HSV replic up	HSV replic up primary fold	GALR2 ag	RGS16-Gao HTS	INS promoter inh	INS promoter inh cell count	PKD1 kinase inh
O=C(Nc1ccccc1)N(O)c1ccc(Cl)cc1
    i	0.92	-1.6	102	0	65	8
CSc1ccccc1NC(=O)Nc1ccccc1Cl
    i	1	nt	89	nt	nt	nt
O=C(NCCc1ccc2c(c1)OCCO2)c1ccccc1F
    i	1	-1.4	68	0	68	6
CC(C)(C)C1=Nn2c(nnc2-c2n[nH]c3c2CCC3)SC1
    i	1	-1.4	102	nt	nt	-2
Clc1ccc(Nc2nc(C3CC3)cs2)cc1
    nt	nt	-3.0	105	nt	nt	-9
O=C1OCc2cc(NC(=O)C3CCCO3)ccc21 (stereo not drawn)
    i	0.99	-0.9	105	27	60	-7
CCOC(=O)c1cccc(NC(=O)CNC(=O)C2CCCCC2)c1
    i	0.92	-2.8	98	-47	81	42
CC1(C)CC(=O)C(C=NCc2ccccn2)=C(O)C1
    i	0.86	1.5	108	-55	138	-3
Fc1ccc(NC(=S)Nc2nccs2)cc1
    i	1.1	nt	109	30	52	-6
O=C(O)CCc1nc2cc(Cl)ccc2n(Cc2ccccc2)c1=O
    i	0.97	nt	100	nt	nt	-3
CCC1C(=O)Nc2ccccc2N1C(=O)c1ccc(Cl)nc1 (stereo not drawn)
    i	1	nt	112	nt	nt	-9
CC1CC(=O)N(CC(=O)Nc2ccc3c(c2)OCO3)c2ccccc2S1 (stereo not drawn)
    i	0.89	-1.1	100	-22	91	-7
O=C(Nc1c(C(=O)N2CCCCC2)cnn1-c1ccccc1)c1ccccc1
    i	0.86	-3.8	101	nt	nt	0
Cc1cc([N+](=O)[O-])c2[nH]c(C(=O)N/N=C/c3ccccc3C(=O)O)c(-c3ccccc3)c2c1
    nt	nt	-0.9	95	-20	80	3
COc1ccccc1NC(=O)COc1ccc(Br)cc1CNCCCN1CCOCC1
    i	0.86	nt	97	-14	112	-3
COc1ccc(-n2c(C)cc(C(=O)COC(=O)Cn3cnc4ccccc43)c2C)cc1
    i	0.95	-2.8	100	nt	nt	-1
N#Cc1nc(-c2ccccc2)oc1NCc1ccco1
    i	1	-0.4	103	nt	nt	-2
CC(C)c1ccc(/C=C/C(=O)NC2=NCCS2)cc1
    nt	nt	-1.8	103	nt	nt	-4
CCOc1ccc(NC(=O)CCC(=O)c2ccc(-c3ccccc3)cc2)cc1
    i	0.94	0.0	106	30	176	-6
CC(C)(C)NC(=O)N1CCN(c2nc(-c3ccccc3)ns2)CC1
    i	0.95	nt	88	nt	nt	nt
Cc1cc(C)c2cc3c(N)c(C(=O)N4CCc5ccccc5C4)sc3nc2c1
    i	0.8	-0.9	99	50	83	-2
CCOc1ccc(C(=O)N2CCCC2)cc1
    i	1.1	-1.2	106	38	107	-2
CCc1nc(SCC(=O)Nc2nc3c(s2)CCCC3)c2ccccc2n1
    i	0.94	-1.9	110	nt	nt	2
CN1CC(c2ccccn2)C2(SC(=S)N(Cc3ccccc3)C2=O)C12C(=O)Nc1ccccc12 (stereo not drawn)
    i	1	-2.7	94	-54	105	7
O=C(Nc1ccccc1[N+](=O)[O-])c1cc2ccccc2nc1Cl
    i	0.88	nt	98	nt	nt	nt
CC(=O)Nc1cc(C(=O)N2CCCC2)ccc1S(=O)(=O)c1ccc(Cl)cc1
    i	0.94	-1.4	107	-28	109	0
Cc1cc(C(=O)O)cc(S(=O)(=O)N2CCOCC2)c1C
    i	0.97	-4.8	104	24	212	-4
NNC(=O)CN(CCc1ccccc1)S(=O)(=O)c1ccc(Cl)cc1
    i	0.99	nt	102	-25	85	-6
O=C(NCCSc1c[nH]c2ccccc12)C1CC1
    i	1.1	-2.7	119	nt	nt	3
COc1ccccc1N1CCN(C(=O)c2cc3n(n2)C(C(F)(F)F)CC(c2ccco2)N3)CC1 (stereo not drawn)
    i	1	-2.0	99	-39	37	-2
CC(=O)Nc1nc(SCc2ccc(Cl)cc2Cl)n[nH]1
    i	0.9	1.8	102	12	112	-3
CCOc1ccc(/C=C2\N=C(c3cccs3)OC2=O)cc1OC
    i	1.1	-0.7	89	-53	35	-6
O=C(c1cccc(COc2cccc3ccccc23)c1)N1CCCC1
    i	0.87	-2.1	93	-276	73	2
Oc1cccc(/C=N/Nc2cc(N3CCCC3)nc(N3CCCC3)n2)c1
    i	0.92	0.1	100	-18	166	-2
CC(C)(C)c1ccc(C(=O)CCCSC2=C(C#N)C(c3ccco3)C3=C(CCCC3=O)N2)cc1 (stereo not drawn)
    nt	nt	-0.7	99	-29	164	-14
O=C(CSc1nnc(-c2ccncc2)o1)Oc1ccccc1
    i	0.86	-1.5	103	i	40	-2
Cc1cc(NC(=O)Cc2csc(-c3ccccc3)n2)ccc1Br
    i	0.98	-1.3	104	nt	nt	-9
O=S(=O)(Nc1ccc(OC(F)(F)F)cc1)c1cccc2nonc12
    i	0.95	nt	94	nt	nt	nt
COc1ccc(C(=O)NCCCN2CCCC2=O)cc1
    i	1	-1.1	102	-6	52	-3
CC(C)(C)N1CC2(c3ccccc3)CN(C(C)(C)C)CC(c3ccccc3)(C1)C2=O
    i	0.98	-1.8	98	-20	74	-2
O=C(O)/C=C/C(=O)Nc1c(F)cccc1F
    i	1	nt	99	nt	nt	nt
N=c1n(CC(=O)O)c2ccccc2n1Cc1ccccc1Cl
    i	1	-1.0	95	-3	64	11
C=CCN(c1ccccc1)S(=O)(=O)c1ccc2c(c1)oc(=O)n2C
    i	0.7	-3.7	99	nt	nt	6
CCOC(=O)C1(Cc2ccccc2)CCN(Cc2ccc(C3CCCCO3)s2)CC1 (stereo not drawn)
    i	0.87	nt	98	nt	nt	nt
CCCC(=O)NC(c1ccc(N(C)C)cc1)c1c(O)ccc2ccccc12 (stereo not drawn)
    i	0.83	-1.1	105	31	171	9
CC(=O)OCc1nc2sc3c(c2c(=O)[nH]1)CCCC3
    i	0.95	0.5	98	-60	114	-4
CCOc1ccc2c(c1)c(C(C)=O)c(C)n2-c1ccccc1
    i	0.86	-0.7	100	-4	95	-2
CN(C)CCNc1ccc(-c2nn(C)c(=O)c3ccccc23)cc1[N+](=O)[O-]
    i	1.1	nt	102	nt	nt	6
CC(=O)N1N=C(c2ccc(Br)cc2)CC1c1cn(C)c2ccccc12 (stereo not drawn)
    i	1	-0.4	92	-81	97	1
C=CCn1c(SCc2cc(=O)n3cc(C)ccc3n2)nnc1-c1cccc(C)c1
    i	0.89	-1.8	130	-15	78	5
O=C(COc1ccccc1)Nc1ccc(N2CCN(C(=O)c3ccco3)CC2)cc1
    i	0.97	nt	102	-53	117	-8
CCc1c(C)sc(NC(=O)Cn2nc(C)c([N+](=O)[O-])c2C)c1C(N)=O
    i	1	nt	95	nt	nt	-3
CN(CCO)c1cc(N2CCN(C(=O)c3ccco3)CC2)c2nonc2c1[N+](=O)[O-]
    i	0.98	-1.4	110	60	90	0
Cc1ccc2nc3nc(NCC4CCCO4)c(C(=O)NC4CCCCC4)cc3c(=O)n2c1 (stereo not drawn)
    i	1.1	nt	102	38	102	0
CCOc1ccc(-c2nnn(CC(=O)NCc3ccco3)n2)cc1
    i	0.99	0.3	92	12	134	-2
CCc1nnc(NC(=O)CSc2nnc(COc3cccc(C)c3)o2)s1
    i	0.94	-1.0	101	75*	62*	-17
CCSc1nc(N)c2c3c(sc2n1)CN(C)CC3
    i	0.9	-1.5	103	nt	nt	2
FC(F)(F)c1ccc(C2[C@H]3CN(Cc4cccnc4)[C@H](c4ccccc4)C34CC2(c2cccnc2)C4)cc1 (stereo partly drawn)
    i	0.96	nt	112	nt	nt	nt
CC(NC(=O)C1CCCCC1)C(=O)NC1=NCCS1 (stereo not drawn)
    i	0.73	0.8	104	-18	91	-10
N#C/C(=C(/O)COc1cccc2ccccc12)c1nc2ccccc2[nH]1
    i	1	1.4	117	7	110	-4

Rewritten with tabs: part of the list above.
canonical_smiles	HSV replic up	HSV replic up primary fold	GALR2 ag	RGS16-Gao HTS	INS promoter inh	INS promoter inh cell count	PKD1 kinase inh
Cc1ccc2nc3nc(NCC4CCCO4)c(C(=O)NC4CCCCC4)cc3c(=O)n2c1 (stereo not drawn)	i	1.1	nt	102	38	102	0
CCOc1ccc(-c2nnn(CC(=O)NCc3ccco3)n2)cc1	i	0.99	0.3	92	12	134	-2
CCc1nnc(NC(=O)CSc2nnc(COc3cccc(C)c3)o2)s1	i	0.94	-1.0	101	75*	62*	-17
CCSc1nc(N)c2c3c(sc2n1)CN(C)CC3	i	0.9	-1.5	103	nt	nt	2

Further compounds:
Value order: HSV replic up	HSV replic up primary fold	GALR2 ag	RGS16-Gao HTS	INS promoter inh	INS promoter inh cell count	PKD1 kinase inh
Cc1ccc(CNC(=O)CCc2c(C)nc3ncnn3c2C)cc1
    i	0.95	-1.7	104	33	106	1
CC(C)(C)OC(=O)C(C(=O)OC(C)(C)C)c1ccc(Cl)nn1
    i	0.98	nt	102	nt	nt	7
Cc1nc(C(=O)N/N=C/c2[nH]ncc2Br)cs1
    i	1	nt	102	nt	nt	nt
CCOC(=O)c1cnc(-n2nc(C)cc2C)nc1NC(C)c1ccccc1 (stereo not drawn)
    i	0.73	-0.1	102	-4	118	-7
CCN(CC)S(=O)(=O)c1cccc(C(=O)N/N=C/c2ccc(N3CCOCC3)cc2)c1
    i	0.79	nt	101	nt	nt	-1
CCC(=O)NC(Nc1cccc(C)n1)(C(F)(F)F)C(F)(F)F
    i	0.93	-2.9	93	-41	125	-7
COc1cc(/C=N/n2c(SC)nnc(C(C)(C)C)c2=O)ccc1O
    i	0.93	-1.0	102	77*	116*	15
CCCNS(=O)(=O)c1ccc(OCC(=O)OC)cc1
    i	1.1	-4.0	103	-53	103	-11
O=C(NC(Nc1cc(C(F)(F)F)ccc1Cl)C(=O)c1ccccc1)c1ccccc1 (stereo not drawn)
    i	1	-0.7	100	6	154	1
COc1ccc(C(=S)N2CCOCC2)cc1OC(=O)c1cccc([N+](=O)[O-])c1
    i	0.95	nt	99	-29	83	-1
CCN1C(=O)CC(C(=O)O)SC1=Nc1ccc(OC)cc1 (stereo not drawn)
    i	0.91	-2.4	101	nt	nt	1
CCNc1nc(NCC)nc(N(C#N)C(C)C)n1
    i	1.1	nt	97	nt	nt	nt
CCOC(=O)/C(=N\Nc1cc(Cl)ccc1Cl)N1CCOCC1
    i	0.98	nt	99	-12	79	-5
COCCn1c(=NC(=O)CSCC(=O)NC2CCCCC2)sc2cc(OC)ccc21
    i	0.94	0.1	105	nt	nt	-3
Cc1ccc(NC(=O)/C=C\C(=O)NCC(=O)O)cc1C
    i	1.1	-1.7	107	46	102	-14
Cc1ccc(CCNC(=O)CN(C)S(=O)(=O)c2ccc3c(c2)c(=O)n(C)c(=O)n3C)cc1
    i	0.8	-1.2	100	nt	nt	-12
CCc1cccc(C)c1NC(=O)CN(C)Cc1cccc(F)c1
    i	0.91	-0.7	107	nt	nt	-4
CCOC(=O)c1c(C)n(C(=O)c2ccco2)c(=O)n1C(=O)c1ccco1
    i	0.8	-3.3	103	nt	nt	8
CNc1ccccc1C(C)(C)c1cc(-c2ccco2)n[nH]1
    i	0.95	-1.2	103	nt	nt	-7
O=C(CN1C(=O)CSc2ncccc21)N1CCOCC1
    i	0.97	-0.8	95	nt	nt	-9
Cc1ccc(C(=O)Nc2ncc(Cc3ccc(SC(F)F)cc3)s2)cc1
    i	0.88	0.5	104	nt	nt	6
CCn1c(SCC(=O)NCc2ccc(F)cc2)nc2c(c1=O)SC(C)C2 (stereo not drawn)
    i	0.83	-0.8	115	-10	136	-9
CC(=O)OCC(=O)C1(O)CCC2C3CCC4=CC(=O)C=CC4(C)C3C(O)CC21C (stereo not drawn)
    i	1.1	nt	101	nt	nt	nt
Cc1ccccc1C(=O)NC(C(N)=O)P(=O)(OC(C)C)OC(C)C (stereo not drawn)
    i	1.1	nt	93	nt	nt	nt
O=C1OCCC1Sc1nnc(-c2ccc(Cl)cc2Cl)o1 (stereo not drawn)
    i	0.85	nt	100	nt	nt	nt
COc1ccccc1C(=O)N1CCN(c2nc3cc(C)c(C)cc3cc2C#N)CC1
    i	0.81	-0.6	101	33	140	5
CC1CCN(C(=O)CN2C(=O)C(=O)c3ccccc32)CC1
    i	1	-2.5	112	nt	nt	8
O=C(C1=C[C@@H](c2ccc3c(c2)OCO3)C[C@@H](OCc2ccc(CO)cc2)O1)N1CCOCC1
    i	0.9	nt	106	nt	nt	8
